Screens from PubChem BioAssay.
AF4-AF9 inh: inhibitors of human MLL-AF4/AF9 interaction. P42568. AlphaScreen, biotin-AF4 peptide binding to FLAG-AF9. inhibition, % at 10 µM. 350,000 tested, 0.47% active. AID 651704;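 active = every replicate reaching a set inhibition limit, whatever the replicate mean, cut at about 25% in these data; inconclusive = mean inhibition reaches that limit but some replicates miss it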;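 also: 0% = plate neutral control median and 100% = total signal loss; the record names both 10 and 1 µM as test concentration; the first replicate is given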
Beta cell apopt: beta cell apoptosis inhibition; INS-1E cytokine-induced death, ATP luminescence, 48 h; percent of positive-control rescue, neutral wells zero; protection from apoptosis, % (test concentration not listed); 300,000 tested, 0.8% active;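 active = all replicates at 75% or more, or half of them and the mean; inconclusive = half reach 75% but not the mean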;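 also: 0% = cytokine-treated negative control wells and 100% = positive control rescue; higher means more ATP so stronger rescue from cytokine killing; wells of about 40 µL received 100 nL stock; the first replicate is given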
Calb FLC: C. albicans growth modulation with fluconazole; C. albicans CaCi-2 (fluconazole-resistant clinical isolate) + fluconazole, Alamar Blue growth, 48 h; growth inhibition, % (no concentration beside the values); 300,000 tested, 0.57% active;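 active = most replicates above 75%; inconclusive = exactly half above 75%; inactive = most below 75%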;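 also: all wells also contain fluconazole at 8 µg/ml as a sub-toxic cotreatment; 0% = median of DMSO wells and 100% = median of geldanamycin control wells; wells of about 8 µL received 7.5 nL stock; the first replicate is given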
RanGTP-Imp inh: inhibitors of RanGTP-importin-beta interaction, primary screen, biochemical, FRET, CFP-Ran, YFP-importin-beta, homogeneous. 300,000 tested, 1.1% active. cell-free CFP-Ran/YFP-importin-beta FRET ratio. inhibition, % (no concentration beside the values);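 active = most replicates above 15%; inconclusive = exactly half above 15%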;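 also: 0% = DMSO wells and 100% = Ran loaded with GDP instead of GTP; wells of about 40 µL received 100 nL stock; the first replicate is given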
Vif A3G: inhibitors of Vif binding to APOBEC3G peptide, primary screen, biochemical, TR-FRET, GST-Vif 1-94, biotin-A3G peptide, dose response retest (AID 1117319); TR-FRET GST-Vif / biotin-A3G peptide binding; higher % means a stronger effect; test concentration not given here; strong numbers were not always called active; inhibition, %, or IC50 in µM where a hit was titrated; 260,000 tested, 0.57% active;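 active = above the screen mean plus three standard deviations and confirmed in dose response; inconclusive = results disagree or hit not tested in dose response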;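 also: Vif residues 1-94 fused to GST binding biotinylated APOBEC3G peptide 110-148; 0% = full assay without inhibitor and 100% = GST in place of GST-Vif; retest series ran down from 100 µM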
Bfl-1 A1 inh: inhibitors of the anti-apoptotic protein A1, read as caspase activation; MEF A1-2A-BIM cells, Caspase-Glo 3/7 luminescence, 3 h; percent of clofoctol response, vehicle zero; caspase activation, % (concentration not given with the values); 330,000 tested, 0.066% active; AID 2462;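 active = over half of replicate activation scores above 10%, or exactly half above 10 with the replicate mean above 10; inconclusive = replicate mean below 10 yet half the replicates above 10; inactive = over half of replicates below 10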;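 also: wells of about 30 µL received 50 nL stock; many hits fall short of the cut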
T cruzi inh: blocks replication of Trypanosoma cruzi; T. cruzi beta-gal in NIH3T3, luminescence, 90 h; inhibition, % (no concentration beside the values); 300,000 tested, 1.4% active; AID 1885;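 active = mean inhibition across valid replicates above about 55%, limit read from the data; inconclusive = mean below that limit but half or more replicates reach it; inactive = mean below it, under half of replicates reach it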;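 also: signal also drops with host cell toxicity which is not excluded here; 0% = plate median of DMSO wells and 100% = zero luminescence signal; higher percent means less beta-gal luminescence so fewer parasites; stock transfer was 50 nL into about 50 µL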
LANA-H2B inh: blocks KSHV LANA binding to histone H2A/H2B. 320,000 tested, 0.6% active. cell-free LANA-H2A/H2B peptide, fluorescence polarization. inhibition, % (test concentration not listed). Q9QR71; in the data active = inhibition mostly above about 10%, no sharp cut-off; inactive = mostly below about 6.7%;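 also: stock transfer was 7.5 nL into about 10 µL; 0% = median of vehicle wells and 100% = median of positive control wells; one replicate is shown; the record names a cut of 25% in any replicate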
Target sequence (Q9QR71 whole entry, looked up): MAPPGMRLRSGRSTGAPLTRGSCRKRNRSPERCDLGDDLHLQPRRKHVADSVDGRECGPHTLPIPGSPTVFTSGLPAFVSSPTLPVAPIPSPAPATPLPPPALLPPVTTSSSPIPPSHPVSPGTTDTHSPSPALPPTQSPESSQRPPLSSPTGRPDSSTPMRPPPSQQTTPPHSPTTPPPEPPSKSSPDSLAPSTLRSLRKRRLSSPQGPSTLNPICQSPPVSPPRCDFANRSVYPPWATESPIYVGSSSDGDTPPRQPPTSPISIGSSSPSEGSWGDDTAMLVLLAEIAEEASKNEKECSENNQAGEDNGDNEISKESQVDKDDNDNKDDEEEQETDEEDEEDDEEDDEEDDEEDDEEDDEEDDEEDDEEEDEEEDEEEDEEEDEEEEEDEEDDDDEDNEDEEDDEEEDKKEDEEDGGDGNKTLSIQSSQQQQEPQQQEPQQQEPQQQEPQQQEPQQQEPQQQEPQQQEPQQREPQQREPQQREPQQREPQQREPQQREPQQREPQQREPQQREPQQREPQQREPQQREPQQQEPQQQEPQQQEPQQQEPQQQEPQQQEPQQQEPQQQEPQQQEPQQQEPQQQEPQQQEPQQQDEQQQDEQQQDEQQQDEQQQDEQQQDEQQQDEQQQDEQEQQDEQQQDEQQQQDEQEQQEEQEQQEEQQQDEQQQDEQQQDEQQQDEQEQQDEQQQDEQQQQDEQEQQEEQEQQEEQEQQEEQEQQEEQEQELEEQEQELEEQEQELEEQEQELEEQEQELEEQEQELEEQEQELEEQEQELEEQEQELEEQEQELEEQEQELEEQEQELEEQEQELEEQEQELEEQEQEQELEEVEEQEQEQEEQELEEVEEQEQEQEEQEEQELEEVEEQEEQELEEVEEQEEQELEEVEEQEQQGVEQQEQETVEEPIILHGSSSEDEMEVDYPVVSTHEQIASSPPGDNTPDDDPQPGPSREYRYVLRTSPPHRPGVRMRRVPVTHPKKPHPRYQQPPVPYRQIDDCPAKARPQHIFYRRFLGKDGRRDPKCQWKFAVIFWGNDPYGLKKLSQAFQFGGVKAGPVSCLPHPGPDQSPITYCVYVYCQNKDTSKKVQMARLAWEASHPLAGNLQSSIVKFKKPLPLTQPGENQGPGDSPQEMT
* marks the source's active call; other numbers are inactive results; u = inconclusive; x = not tested or not shown; & = joins results of further samples.

canonical_smiles	AF4-AF9 inh	Beta cell apopt	Calb FLC	RanGTP-Imp inh	Vif A3G	Bfl-1 A1 inh	T cruzi inh	LANA-H2B inh
O=C(Nc1ncccc1O)c1cccc(S(=O)(=O)NCc2ccccc2)c1	-0.5	-4	-22	-0.4	5%	0.6	-10	-0.3
COc1ccccc1CNC(=O)CSc1nc(-c2ccccc2)cn1N	x	-3	-6	u	-4%	0.3	-3	1.2
COc1ccccc1-c1noc(-c2cc(OC)c(OC)c(OC)c2)n1	x	3	5	0.0	10%	-0.2	17	-5.6
CC(=O)Nc1ccc(-c2ccc(NC(C)=O)cc2)cc1	-3.2	-6	-4	-3.4	x	-1.6	-3	4.3
O=C(/C=C/c1ccc[nH]1)c1ccccc1	14	2	2	23*	-9%	-1.6	-6	-4.4
COc1cccc(C(=S)N2CCOCC2)c1OS(=O)(=O)c1ccc(Cl)cc1	6.1	1	9	2.7	x	-0.4	23	-4.2
CC(C)C(=O)NC(c1ccc([N+](=O)[O-])cc1)c1c(O)ccc2ccccc12 (stereo not drawn)	x	9	25	-2.9	19%	-0.5	7	-0.3
Cc1ncc([N+](=O)[O-])n1CC(=O)NC1CCCCCC1	7.2	-1	32	-1.0	0%	0.9	-12	3.2
Cc1ccccc1CSCC(=O)Nc1ccccc1-c1ccccc1	-1.8	-9	0	1.4	x	-0.5	17	-0.4
S=C(c1ccc(Br)cc1)N1CCCC1	0.1	-4	5	2.2	2%	0.6	3	1.2
Cn1c(-c2ccc(F)c(F)c2)cc2onc(-c3ccccc3)c2c1=O	6.3	10	x	x	x	-5.5	x	2.6
O=C(c1nnsc1S(=O)(=O)c1ccc(Cl)cc1)N1CCOCC1	-18	x	5	9.1	-13%	x	18	x
CCOCCCNC(=O)c1ccc2c(=O)n(Cc3ccc4c(c3)OCO4)c(=S)[nH]c2c1	-3.1	3	-4	-0.1	7%	-0.2	1	-3.5
CC1=C(C#N)C(=O)NC(=O)/C1=C\c1ccc(-c2ccc(C)cc2[N+](=O)[O-])o1	12	x	4	-0.2	u	x	-3	x
COc1ccc(Cl)cc1S(=O)(=O)N(C)CC(=O)N1CCOCC1	0.2	-1	-4	3.7	7%	-0.2	-6	-7.5
CCn1c(-c2cc(Br)cc(OC)c2O)nc2cc(S(=O)(=O)N(C)C)ccc21	x	1	-38	-2.6	6%&-139%	0.0	5	2.8
Cc1ccc(N=Nc2c(N)nn3c(N)c(C#N)c(C)nc23)cc1	-1.2	0	32	-1.7	3%	1.3	46	1.7
CC(=O)c1cccc(NC(=O)NCc2ccco2)c1	x	3	1	1.5	8%	0.7	-8	-0.7
CN1CCN(CC(=O)Nc2nc(-c3c[nH]c4ccccc34)cs2)CC1	u	-8	9	3.2	1%	-0.4	-17	-3.9
Cc1sc2nc(SCC(=O)Nc3ccccc3F)[nH]c(=O)c2c1C	-6.6	-4	37	2.1	x	0.4	-12	-5.4
Cn1ncc([N+](=O)[O-])c1C(=O)Nc1cccc(Cl)c1	-0.3	1	8	4.6	x	-0.1	-8	-1.7
COc1cccc(Cn2c(=O)ccc3ccccc32)c1	-1.3	-1	-3	-1.6	6%	0.5	6	-2.7
O=C(OCc1nnc(-c2ccccc2)o1)c1ccc(Br)o1	-14	-1	-8	0.9	-1%	-0.3	-2	4.5
Cc1ccc(C2CC(c3ccccc3OC(F)F)Nc3ncnn32)cc1 (stereo not drawn)	x	-5	-3	0.0	-1%	-0.2	21	1.0
Cc1cc(C(=O)N/N=C/c2cccs2)no1	1.6	-3	12	-3.2	x	-1.5	2	2.9
CCC(Oc1ccccc1)C(=O)N(Cc1ccccc1)c1ccccn1 (stereo not drawn)	x	-8	-2	-3.1	-2%	0.3	-16	1.8
CC(=O)N1CCc2cc(NC(=O)c3ccc(C)cc3)ccc21	x	4	-16	x	5%	0.2	-5	-3.6
Cc1nc(CC(=O)O)c(-c2ccccc2)s1	x	-3	5	-3.0	0%	0.5	5	0.5
CCCCN1C(=O)N(C)C2NC(=S)NC21 (stereo not drawn)	-0.7	-3	2	1.0	-12%	0.9	1	-3.0
COc1cc(-c2nnc(NC(=O)CS(=O)(=O)c3ccc(C)cc3)o2)cc(OC)c1OC	-1.2	x	-1	-0.1	-1%	0.7	-7	1.1
CCOC(=O)C1=C(C)Nc2nc3ccccc3n2C1c1ccccc1 (stereo not drawn)	x	-3	2	2.0	3%	0.9	14	-2.3
CCC(Oc1ccccc1)C(=O)NCCOC (stereo not drawn)	-4.2	-3	-2	4.2	x	0.6	-19	-2.6
Cc1ccc(CNC(=O)C2CC(c3ccc(C(F)(F)F)cc3)=NO2)o1 (stereo not drawn)	0.0	-3	0	3.9	-2%	-1.2	-23	-1.4
c1ccc(-c2cn(CC3CCCCC3)nn2)cc1	-1.5	7	-17	-1.2	x	0.0	-13	-2.8
O=C(CSc1nnc(NC(=O)C2CC2)s1)NCc1ccccc1Cl	-2.3	0	0	0.9	-3%	0.2	12	-0.4
CN1CCC(N(C)S(=O)(=O)c2ccc(NC(=O)COc3cccc(C(F)(F)F)c3)cc2)CC1	14	-5	7	-0.9	-3%	-0.1	50	-5.6
O=c1[nH]c(C2CCCN(S(=O)(=O)c3ccccc3)C2)nc2c1nnn2Cc1ccccc1Br (stereo not drawn)	-2.7	-1	20	1.7	3%	0.1	-4	-1.3
Cc1nc(SCC(=O)c2ccccc2)n[nH]1	x	-6	-6	1.4	-1%	-0.9	-16	-0.4
Cc1cccc(/C=C2\CS/C(=C\c3cccc(C)c3)C2=O)c1	x	1	7	-2.5	4%	0.1	16	-1.0
CC(=O)N(C1=C(Cl)C(=O)c2ccccc2C1=O)c1ccc(C(=O)O)cc1	-0.7	6	1	0.8	60µM*	-0.9	-4	7.4
O=C(N/N=C\c1cn(-c2ccccc2)nc1-c1ccccc1)c1ccc2c(c1)OCO2	x	4	5	3.4	2%	0.7	x	-2.4
Cc1cccc(NCc2ccc(O)c3ncccc23)c1C	4.2	8	104*	1.3	x	0.5	15	3.8
Cn1c(=O)c2c(nc(N3CCN(c4ccccn4)CC3)n2Cc2ccc(Cl)cc2Cl)n(C)c1=O	x	-2	-16	1.8	10%	1.5	1	-0.3
COC(=O)c1ccc(CSc2ccc(S(=O)(=O)N3CCCCC3)cn2)cc1	-13	1	x	x	x	1.2	x	-0.1
CS(=O)(=O)N1CCN(c2ccccc2NC(=O)c2cccc3ccccc23)CC1	x	3	30	2.7	21%	-0.8	12	2.2
CC1CCCCC1NC(=O)COn1nnc2ccc(Cl)cc21 (stereo not drawn)	x	-6	-2	1.1	14%	0.0	6	-3.9
CCOc1cc(CN2CCN(C(=O)c3cccc4ccccc34)CC2)ccc1OC	-0.6	-6	14	0.1	x	0.2	12	-5.5
NC(=O)COC(=O)Cc1coc2cc3c(cc12)CCC3	-4.7	-7	-1	-1.4	-1%	-1.5	-15	-1.2
Cc1cccc(C)c1OCC(=O)Nc1cccc(C(=O)O)c1	0.8	4	-6	3.1	7%	-5.9	-16	3.1
Cc1nn(-c2ccccc2)c2c1c(C)c(CCC(=O)NCC1CCCO1)c(=O)n2C (stereo not drawn)	-1.3	x	2	-1.0	x	x	17	x
O=C(O)CNC(=O)C1COc2ccccc2O1 (stereo not drawn)	x	x	15	-3.2	2%	0.0	-8	-0.8
O=C(Nc1nnc(CC(=O)N2CCOCC2)s1)C1COc2ccccc2O1 (stereo not drawn)	x	6	-7	-0.2	11%	0.3	-3	-3.6
CC(C)N1CCC2(CC1)Oc1ccc(Br)cc1C1CC(c3cccnc3)=NN12 (stereo not drawn)	x	-1	0	1.0	13%	0.1	-5	-1.4
O=C(NCCc1ccccc1)[C@@H]1CC=C[C@@H]2CCN(C3CCCCC3)C(=O)[C@@H]21	-1.2	-6	-8	2.4	x	1.3	6	3.5
Cc1ccccc1/C=N/NC(=O)c1sccc1C	x	4	-3	4.0	x	-6.7	4	2.0
CCn1c(=O)c(C(=O)NCCc2ccc(OC)c(OC)c2)c(O)c2ccccc21	-2.8	0	49	0.2	-3%	-0.7	1	-0.1
Cc1ccc(C(C(=O)NC2CCCCC2)N(CC2CCCO2)C(=O)CNC(=O)c2ccco2)cc1 (stereo not drawn)	x	-11	-3	1.1	1%	0.3	-16	-1.7
O=C(Oc1ccccc1)c1cccc2cccnc12	-29	-6	15	-3.1	75%	0.4	1	-4.2
Fc1ccccc1Cn1nnc(-c2ccc3c(c2)OCO3)n1	x	-8	-3	-1.9	1%	x	-17	0.0
CCOc1ccc(S(=O)(=O)N2CCOCC2)cc1NC(=O)C1CSC2(C)CCC(=O)N12 (stereo not drawn)	0.7	-5	-6	-1.8	3%	-0.9	-3	2.2

Additional compounds follow.
canonical_smiles	AF4-AF9 inh	Beta cell apopt	Calb FLC	RanGTP-Imp inh	Vif A3G	Bfl-1 A1 inh	T cruzi inh	LANA-H2B inh
COc1ccc(Cl)cc1C(=O)Nc1ccc(Br)c(C)n1	-1.4	-8	-1	-1.6	-9%	0.3	-11	1.3
CN(C(=O)CN1CCCCCC1)c1c(N)n(Cc2ccccc2)c(=O)[nH]c1=O	-3.0	-2	x	x	2%	0.0	x	1.2
Cc1c(C)c2ccc(OC(C)C(=O)N[C@@H](Cc3c[nH]c4ccccc34)C(=O)O)c(C)c2oc1=O (stereo partly drawn)	-0.2	x	-3	2.8	x	1.0	2	-1.5
CCn1cc(/C=C(\NC(=O)c2ccccc2Cl)C(=O)N2CCOCC2)c2ccccc21	-2.4	2	6	5.2	x	-0.9	9	-4.0
CC(=O)N1CCc2cc(S(=O)(=O)NCCC(=O)Nc3ccc4c(c3)OCCO4)ccc21	x	1	-2	-1.6	16%	-0.9	-14	-4.2
O=C(CSc1nnc(CNC(=O)c2ccccc2F)o1)Nc1cccc(C(F)(F)F)c1	-1.8	-1	6	0.4	x	-0.1	0	-4.4
COC(=O)Nc1sc2c(c1C(=O)NC1CC1)CCCCCC2	x	-8	21	1.5	14%	-0.4	-7	-1.0
CS(=O)(=O)c1ccc(NS(=O)(=O)c2ccc(Cl)c(C(=O)NCc3ccco3)c2)cc1	-1.5	0	x	x	3%	1.7	x	-1.2
COC(=O)c1ccc(NC(=O)c2cccc(C)c2)cc1	-27	-1	-6	-0.4	-5%	-3.0	-20	4.5
c1ccc(-n2nnnc2NCCc2c[nH]c3ccccc23)cc1	x	3	-6	-2.3	6%	0.3	-5	-1.3
CN(C(=O)c1ccncc1)c1nnc(-c2ccccn2)s1	x	-8	-1	1.7	-7%	-0.1	1	2.2
Nc1nc(NC(=O)CCC(=O)O)nn1-c1ccccc1	-8.0	-1	-2	1.7	1%	-0.2	6	1.9
CCc1ccccc1NC(=O)CSc1nnc(-c2ccco2)n1N	x	-4	48	3.3	-2%	-0.2	-23	-3.3
CCCCCC(=O)Nc1cccc(S(=O)(=O)NC2=NCCC2)c1	-2.0	-1	x	x	-1%	-0.3	x	1.1
CCc1ccc(N2CCN(C(=O)c3ccc(OC)c(OC)c3)CC2)cc1	3.1	-7	-6	-2.5	4%	0.0	1	-2.6
Cc1ccc(S(C)(=O)=O)cc1S(=O)(=O)Nc1ccccc1	x	3	0	2.9	6%	-0.4	1	0.6

Compounds as they come; overall some 4.3% were active at least once.
